CapD inh = CapD enzyme inhibition. purified CapD enzyme, fluorescence intensity read-out; active compounds read low; some hits fall short of the stated cut. z-score (test concentration not listed). 140,000 tested, 0.23% active. AID 492967;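 active = z-score under -4 in either of two replicates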;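 also: stock transfer was 100 nL into about 40 µL; score is relative to mean and spread of the plate; one replicate is shown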
AID504770 = E. coli YBA685 growth inhibition, screen for V. cholerae RctB inhibitors | E. coli YBA685 rctB-dependent plasmid, OD600 growth, 3 h; active compounds read low | z-score (no concentration beside the values) | 130,000 tested, 0.27% active | AID 504770;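 active = z-score under -2 on both plates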;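 also: wells of about 30 µL received 100 nL stock; score is relative to mean and SD of the test wells; the first replicate is given; strong numbers were not always called active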
* = called active by the depositor; . = not tested or not shown.

SMILES	CapD inh	AID504770
c1ccc(-c2nn(-c3ccccc3)c3c2cnc2ccccc23)cc1	-1.71	-0.45
CCCNC(=O)c1ccccc1NS(=O)(=O)Cc1ccccc1	13.1	1.4
O=C(O)C1CCCCC1C(=O)N1CCN(S(=O)(=O)c2cccs2)CC1 (configuration not stated)	-0.3	-0.75
O=C(CSCc1ccccc1Cl)N/N=C/c1ccc(O)cc1O	.	0.2
C=CCN1C(=O)/C(=C2\SC(=S)N(CC(=O)O)C2=O)c2cc(Br)ccc21	-0.46	0.65
CC(=O)c1cc([N+](=O)[O-])c(Sc2ccc(Cl)cc2)s1	-0.07	.
O=C(CCCn1ncn2c(cc3occc32)c1=O)NCCc1ccccc1	0.81	0.05
CCO/C=C1/C(=O)N(c2ccc(OC)cc2)C(=O)c2ccccc21	.	-0.55
COc1ccccc1-n1c(=S)[nH]c2c(sc(=S)n2-c2ccccc2C)c1=O	-1.42	.
N#Cc1cccn1-c1ccccc1F	0.465	-0.1
Cc1ccc2nc(-c3ccc(NC(=O)[C@@H]4CCCC[C@@H]4C(=O)O)cc3)sc2c1	39.7	-1.25
CN1CCCN(C(=O)c2ccccc2Br)CC1	0.955	-0.3
O=C1C2CCC3(CC2C(=O)N1Cc1ccccc1)OCCO3 (configuration not stated)	0.34	.
O=C1/C(=C/c2ccc(Br)cc2)C=C(c2ccccc2)N1c1ccccc1Br	-0.72	.
COc1ccc(-c2cccc(NC(=O)c3ccccc3)c2)nn1	.	-0.05
COc1ccc(-c2nc3ccccc3c(=O)n2NCc2ccccc2Br)cc1OC	0.58	.
CCc1cc(C(=O)O)c(NC(=O)c2cccc(C)c2)s1	-2.04	-0.65
Cc1ccc(-c2nc(-c3ccccc3)c(-c3ccccc3)[nH]2)cc1[N+](=O)[O-]	-0.16	.
O=C1C2C3c4ccccc4C(c4ccccc43)C2C(=O)N1CN(C(=O)C(F)(F)F)c1ccccc1 (configuration not stated)	-0.09	.
CC1CN(C(=O)C2CCCCC2)C(C)CN1C(=O)C1CCCCC1 (configuration not stated)	0.03	0.1
COc1ccc(C(=O)C2CN(C)CC2C(=O)c2ccc(OC)cc2)cc1 (configuration not stated)	-0.125	.
COC(=O)c1ccc(-n2nnnc2SCCCC(=O)c2ccc(F)cc2)cc1	-0.335	-1.1
COc1cccc(-c2cc(C(=O)N(C)c3ccccc3)no2)c1	0.015	-0.7
CCOc1ccc(-n2c(=O)c3sccc3n(CC(=O)NC3CCCC3)c2=O)cc1	-0.28	0.2
C=CC[n+]1ccc(/C=C/c2ccccc2O)c2ccccc21	-0.07	-0.55

Record cards (already shown):
`COc1ccccc1-n1c(=S)[nH]c2c(sc(=S)n2-c2ccccc2C)c1=O` is entered as CapD inh = -1.42; AID504770 = .
`COc1ccc(-c2nc3ccccc3c(=O)n2NCc2ccccc2Br)cc1OC` is entered as CapD inh = 0.58; AID504770 = .

(list continues)
SMILES	CapD inh	AID504770
COc1cc(C=C2C(=O)NC(=S)NC2=O)cc(Cl)c1OCCOc1cccc(C)c1	0.39	.
COc1ccc(CCn2c(C)cc(C(=O)Cn3cnc4c(oc5ccccc54)c3=O)c2C)cc1	.	-0.2
CC1(C)CC(NC(=O)Cc2ccccc2)CC(C)(C)N1	-0.75	0.55
CCOCCCNc1nc2nc3ccc(C)cn3c(=O)c2cc1C(=O)NC1CCCCC1	.	0.4
CC(C)N(Cc1nnc(-c2ccccc2)o1)C(=O)COc1ccc(C#N)cc1	.	1.45
CCCS(=O)(=O)N1CCN(Cc2ccc(OC)c(OCC)c2)CC1	.	-0.95
Cc1cc(C)c2c(n1)sc1c(=O)n(C(C)(C)C)nnc12	-0.335	0.85
CCc1nc2ccccc2n1Cc1ccccc1	.	0.9
COc1cc(/C=c2\sc3nc4ccccc4n3c2=O)ccc1OC(=O)c1cccs1	0.165	.
CC(C)OC(=O)Cn1cc(C#N)c2ccccc21	0.1	-0.8
Cc1ccc(S(=O)(=O)Cc2ccc(C(=O)N3CCC(C(N)=O)CC3)o2)cc1	-0.395	-0.4
Clc1ccc(SCc2csc(N3CCOCC3)n2)cc1	-0.01	-0.9
FC(F)(F)c1nc2ccccc2nc1N/N=C/c1c(Cl)cccc1Cl	-0.2	.
CC(C)(C)NC(=O)c1ccccc1C(=O)NC(C)(C)C	0.29	0.7
Cc1nn2c(COc3ccc(NC(=O)c4ccco4)cc3)nnc2c2ccccc12	.	-0.45
CS(=O)(=O)Nc1ccc(OC(F)(F)F)cc1	-1.32	1.3
CCCC(=N)C1=C(O)CC(CC(C)SCC)CC1=O (configuration not stated)	0.04	-0.55
Clc1ccc2oc(Nc3ccc4oc5ccccc5c4c3)nc2c1	.	0.3
c1ccc(CSC2=NNC(c3ccccn3)S2)cc1 (configuration not stated)	-0.835	-0.4
COc1cc(OC)nc(COc2ccc(C(=O)N3CCN(CC(=O)N4CCOCC4)CC3)cc2)n1	-0.445	.
CCOc1cc(C=C2C(=O)NC(=O)NC2=O)cc(Cl)c1O	-1.81	-1.1
CCCCN(C(=O)c1ccc2c(c1)OCO2)C1CCS(=O)(=O)C1 (configuration not stated)	.	0
c1ccc(-c2ncc(CN3CCN(c4ccccn4)CC3)[nH]2)cc1	-0.355	-1.25
Cc1noc(C)c1COc1ccc(C(=O)OCC(=O)N2CCc3ccccc3C2)cc1	.	-0.6
O=C(O)/C=C\C(=O)NCc1ccco1	-0.72	2.35

Four entries from above, ordered by number of heavy atoms, ascending.
SMILES	CapD inh	AID504770
Clc1ccc(SCc2csc(N3CCOCC3)n2)cc1	-0.01	-0.9
CC(C)N(Cc1nnc(-c2ccccc2)o1)C(=O)COc1ccc(C#N)cc1	.	1.45
COc1cc(/C=c2\sc3nc4ccccc4n3c2=O)ccc1OC(=O)c1cccs1	0.165	.
COc1cc(OC)nc(COc2ccc(C(=O)N3CCN(CC(=O)N4CCOCC4)CC3)cc2)n1	-0.445	.

The listing picks up, repeating the 2 entries before the break.
SMILES	CapD inh	AID504770
Cc1noc(C)c1COc1ccc(C(=O)OCC(=O)N2CCc3ccccc3C2)cc1	.	-0.6
O=C(O)/C=C\C(=O)NCc1ccco1	-0.72	2.35
COC(=O)c1cnc(Sc2ncc(C(F)(F)F)cc2Cl)n1C	0.115	.
CC(=O)N(C)c1ccc(NC(=O)C23CC4CC(C2)CC(n2cnc(Cl)n2)(C4)C3)cc1	-0.49	-0.45
Cn1nccc1NC(=O)CCc1ccccc1	-0.515	.
CCOC(CNc1ccc2nnc(-c3ccccc3)n2n1)OCC	4.37	-0.6
COCCNC(=O)Cn1cc(C(=O)C(F)(F)F)c2ccccc21	-1.08	0.15
N#Cc1cc(F)c(N2CCCC2)cc1Cl	.	0.3
COc1ccc(C(CC(=O)NCc2ccc3c(c2)OCO3)n2cccc2)cc1 (configuration not stated)	-0.145	0.15
CCCCC1(C)OC(=O)C(=Cc2ccc(N(C)C)cc2)C(=O)O1 (configuration not stated)	-1.27	0.25
O=C(N/N=C/c1ccc(O)c(O)c1O)c1ccc(CSc2nc3ccccc3o2)cc1	.	-0.45
CCCn1nc(-c2nnc(-c3ccc(C)c(C)c3)o2)c2ccccc2c1=O	.	-0.45
CN(C)CCN(C)CC1CC=CCC1 (configuration not stated)	0.125	-0.8
COc1ccccc1-c1nnc(C2CCN(C(=O)c3ccc(F)cc3)CC2)o1	-0.72	0.8
COc1ccccc1N1CCN(c2ncnc3sc4c(c23)CCCC4)CC1	-0.04	.
CC(=O)N/C(=C/c1ccccc1)C(=O)Nc1ccc(I)cc1	-0.98	-0.6
O=C(N/N=C/c1ccc(Oc2ccccc2)cc1)c1ccc2nonc2c1	0.295	.
Clc1ccccc1N1CCN(CC2CC=CCC2)CC1 (configuration not stated)	-0.155	1
CCO/N=C(/N)c1[nH]ncc1Br	0.585	-1.35
N#Cc1c(Cl)cccc1Oc1ccc(S(=O)(=O)NC(CO)Cc2c[nH]c3ccccc23)cc1 (configuration not stated)	-1.31	.
Cc1[nH]n(-c2ccc(Cl)cc2)c(=O)c1C=O	-0.2	-0.3
COC1(C)CNc2ccccc2C(=O)N1 (configuration not stated)	90.7	-1.15
COc1ccc2c(c1)CCC(C)N2S(=O)(=O)c1ccc(C2CNC(=O)C2)cc1 (configuration not stated)	-0.6	-0.05
O=C(COc1ccccc1)Nc1c(-c2cccs2)nc2ccccn12	64.8	-0.55
CCCCCCCn1c(SC/C=C(\C)Cl)nc2c1c(=O)[nH]c(=O)n2C	-0.23	.
CCN(CC)CCNC1=NCCn2c1cc1cc(OC)ccc12	1.46	0.1
CCCCc1[nH]nc2c1C1(CCCCC1)C(C#N)=C(N)O2	0.34	0

The listing continues.
SMILES	CapD inh	AID504770
O=C(NNC(=O)c1ccc(F)cc1)OCCCc1ccccc1	-0.88	.
Cc1cccc(NC2=NC(=S)N(c3cccc(C)c3)C23CCCCC3)c1	0.235	.
CC(=O)Nc1ccc(C(=O)OCC(=O)N2CCCC2)cc1	0.635	0.7
FC(F)(F)c1cc(-c2ccc3c(c2)OCO3)nc2cc(-c3ccccc3)nn12	0.43	.
NC(=O)Cn1cnc2c(nnn2Cc2ccccc2)c1=O	.	1.15
c1ccc(-c2nsc(N3CCCC3)n2)cc1	0.365	-0.65
COc1ccc(N2CCN(CCCNC(=O)C3CCC(=O)N3Cc3ccc(F)cc3)CC2)cc1 (configuration not stated)	0.34	-0.3
O=S(=O)(Cc1ccc(Cl)cc1)N1CCCCCC1	-0.545	-1
Cc1oc(C(C)(C)C)cc1C(=O)N1CCN(C(c2ccccc2)c2ccccc2)CC1	-0.6	-0.65
CCOC(=O)c1c(NC(=O)C(C)Sc2nnc(CNC(=O)c3ccco3)n2-c2ccc(F)cc2)sc2c1CCCCC2 (configuration not stated)	-0.055	.
NS(=O)(=O)c1cccc(S(=O)(=O)c2ccc(Cl)c(Cl)c2)c1	0.13	-0.2
CCOC(=O)C1=C(c2ccccc2)OC(N)=C(C#N)C1c1ccccc1C(F)(F)F (configuration not stated)	1.07	.
Cc1nc(NC2=NCCC(=O)N2)nc2ccccc12	9.71	-0.2
Cc1ccc(C=Nc2ccc(Oc3ccccc3)cc2)s1	-1.77	-1.4
O=C(Nc1cccnc1)c1c(O)c2ccccc2[nH]c1=O	-0.55	1.85
c1ccc(CCCN2CCNCC2)cc1	0.27	0.55
CSc1ncnc2c1oc1ccccc12	0.05	-0.7
O=c1cc(CO)oc(C(Nc2cccc(Cl)c2)c2ccccn2)c1O (configuration not stated)	.	-2.65
CCCCCN(CCCCC)C(=O)C(CCC(=O)O)NC(=O)c1ccc(Cl)c(Cl)c1 (configuration not stated)	0.16	.
CCCOc1ccc(C2C(C(=O)OCC)=CN(Cc3ccc(OC)c(OC)c3)C=C2C(=O)OCC)cc1OC	3.41	.
COC(=O)C(/C=N/OCc1c(Cl)cccc1Cl)NC(=O)c1ccccc1 (configuration not stated)	-0.625	.
O=S1(=O)CC(S(=O)(=O)c2ccccc2)C(S(=O)(=O)c2ccccc2)C1 (configuration not stated)	.	1.15
COc1ccc(/C=C/C(=O)c2sc(-c3ccc(Cl)cc3)nc2C)cc1	-0.825	.
O=C(CCC(=O)N1CCOCC1)Nc1c(F)c(F)nc(N2CCOCC2)c1F	78.9	-0.15
COCc1cc(C)nc2sc(-c3ccc([N+](=O)[O-])cc3)c(NC(=O)c3ccco3)c12	-0.225	.

(cont.)
SMILES	CapD inh	AID504770
S=C(Nc1ccccc1)N1CCN(c2ccc3nnc(-c4ccccc4)n3n2)CC1	0.52	0.15
O=C(NCCOc1ccccc1)C1CCN(c2ncc(C(F)(F)F)cc2Cl)CC1	.	0.45
Cc1c(C(=O)Nc2cnc3ccccc3c2)sc2ncn(CC(=O)Nc3cccc(C(F)(F)F)c3)c(=O)c12	4.81	.
CCOC(=O)C1=C(C)N=c2s/c(=C3\C(=O)N(CC)c4ccccc43)c(=O)n2C1c1ccc(Cl)cc1 (configuration not stated)	-0.065	.
CCN(CC)c1ccc(NC(=O)c2cccs2)c(N(CC)CC)n1	-1.52	-0.3
CC(=O)N(Cc1ccccc1)c1ccccc1C(=O)O	6.66	1.75
CC(C)(C)C(=O)Nc1nnc(SCC(N)=O)s1	.	1.05
CCC(Sc1nc2cc(C(=O)NCc3ccco3)ccc2c(=O)n1Cc1ccco1)C(=O)NCc1cccnc1 (configuration not stated)	1.14	.
CCOc1cc(C2Nc3ccc4ccccc4c3C3=C2C(=O)CC(C)(C)C3)ccc1OCc1ccccc1 (configuration not stated)	4.31	.
C/C(=N\O)C(C)Oc1ccc(Cl)cc1 (configuration not stated)	0.025	-0.4
CCc1ccc(C(=O)O)cc1	0.145	.
c1ccc(CN2CCC(c3ccco3)=N2)cc1	2.37	-0.65
COC(=O)C1C(=O)NC2(C)CC1c1cc(OC)ccc1O2 (configuration not stated)	-0.265	.
COc1ccc(C(=O)[C@@H]2[C@@H](c3ccc(Cl)cc3)C(C#N)(C#N)[C@H]3C=Cc4ccccc4N23)cc1	5.99	.
Cc1ccc(CCNC(=O)c2nnc(CS(=O)(=O)c3ccccc3)o2)cc1	0.175	0.5
c1ccc(-c2ccc(-c3ccccn3)nc2)nc1	1.21	-2.35*
CN=c1scc(-c2cccs2)n1/N=C/c1ccc[nH]1	.	-0.65
O=C(CSc1n[nH]c(=O)n1Cc1ccco1)c1csc2ccccc12	0.455	0.35
Cc1cccc(-n2cnc(C(=O)N3CCN(c4ccccc4)CC3)c2)n1	-0.135	0.1
O=C(O)/C=C\C(=O)N(CCc1ccccc1)Cc1ccccc1	0.14	.
